Assay outcomes as filed in PubChem.
DUX4 txn inh – DUX4-mediated transcription inhibition | 37,000 tested, 0.8% active | activity change, negative = inhibition, % (concentration not given with the values) | 293T-iDUX4 ZSCAN4-Gaussia luciferase reporter, 24 h; hits give low values;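 active means -10% or lower and over 25 points stronger than a control reporter; inconclusive means -10% or lower with a smaller gap; inactive means above -10%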;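 further: 0% = median of neutral control wells and -100% = median of positive control wells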
DUX4 txn inh difference – second read-out of DUX4 txn inh, no call of its own (marks repeat the call); Gaussia minus Italica difference, %; measured here: selective DUX4 reporter inhibition;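 worked out from the two reporters; negative = selective loss of the DUX4 reporter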
DUX4 txn inh control – also measured in DUX4 txn inh; calls as there; activity change, negative = inhibition, %; measured here: Italica tet-on control reporter;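 0 = neutral control and -100 = positive control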
* hit, by the source's call; ? = inconclusive; / = no result given. Only part of the results is shown; count on the stated rates, not on these rows.

SMILES,DUX4 txn inh,DUX4 txn inh difference,DUX4 txn inh control
CCC(=O)Nc1ccc2c(c1)C(=O)N(C)C[C@@H](OC)[C@@H](C)CN(C(=O)COC)[C@H](C)CO2,-1,-2,0.7
CCCC#Cc1ccc([C@H]2[C@@H](CO)N3C(=O)CN(C(=O)Nc4ccccc4F)C[C@H]23)cc1,7,5,2.6
C[C@H](NC(=O)[C@H]1N[C@H]2c3ccc(C4=CCCCC4)c(=O)n3C[C@H]2[C@@H]1CO)c1ccccc1,-9,-11,1.7
C[C@@H]1CN([C@@H](C)CO)C(=O)CCCn2cc(nn2)CO[C@H]1CN(C)C(=O)c1ccc2ccn(C)c2c1,-2,-2,-0.1
O=C(Nc1cccc(Cl)c1)N1C[C@@H]2[C@H](c3ccccc31)[C@H](CO)N2C(=O)c1cccnc1,1,-5,5.6
CNC(=O)C[C@@H]1CC[C@@H]2[C@@H](COc3ccc(NC(=O)c4cscn4)cc3C(=O)N2C)O1,1,1,0.2
CCCC#Cc1ccc([C@@H]2[C@H]3CN(C(=O)NCCC)CC(=O)N3[C@H]2CO)cc1,9,8,1.1
C[C@@H](O)C#Cc1ccc([C@@H]2[C@H](CO)N3CCCCN(C(=O)c4ccc5c(c4)OCO5)C[C@@H]23)cc1,27,21,6.4
COCC(=O)NC[C@H]1[C@H](c2ccc(C3=CCCC3)cc2)[C@@H](CO)N1C(=O)C1CC1,-2,-4,1.6
CN(C)C(=O)C[C@@H]1C[C@@H]2c3cc(NS(C)(=O)=O)ccc3O[C@@H]2[C@H](CO)O1,8,5,2.5
CCCNC(=O)C[C@@H]1C[C@H]2c3cc(NC(=O)COC)ccc3O[C@H]2[C@H](CO)O1,11,1,9.7
C[C@H](NC(=O)C[C@H]1C=C[C@H](NC(=O)CN2CCOCC2)[C@@H](CO)O1)c1ccccc1,5,5,0.5

Looked up above.
Result for COCC(=O)NC[C@H]1[C@H](c2ccc(C3=CCCC3)cc2)[C@@H](CO)N1C(=O)C1CC1 in DUX4 txn inh control: 1.6
Result for C[C@@H](O)C#Cc1ccc([C@@H]2[C@H](CO)N3CCCCN(C(=O)c4ccc5c(c4)OCO5)C[C@@H]23)cc1 in DUX4 txn inh: 27

The results go on:
SMILES,DUX4 txn inh,DUX4 txn inh difference,DUX4 txn inh control
N#C[C@H]1[C@@H](c2ccccc2-c2ccccc2F)[C@H](CO)N1C(=O)C1CCC1,10,-5,15
CN(C)CC#Cc1ccc([C@@H]2[C@@H](CO)N3C(=O)CN(C(=O)c4ccc(F)cc4)C[C@H]23)cc1,13,5,7.7
COc1ccc2c3c(n(C)c2c1)[C@H](CO)NCC31CN(C(=O)Nc2ccc(F)cc2F)C1,7,5,2.8
COc1ccc2c3c(n(C)c2c1)[C@@H](CO)N(C)CC31CN(S(=O)(=O)c2cccs2)C1,27,28,-1.3
CN1[C@@H]2CN(C(=O)c3ccc(F)cc3)c3ccccc3[C@@H]2[C@@H]1CO,0,-6,5.2
CS(=O)(=O)Nc1ccc2c(c1)[C@H]1C[C@@H](CC(=O)N3CCc4ccccc4C3)O[C@H](CO)[C@H]1O2,0,-6,6.4
CC=Cc1ccc2n(c1=O)C[C@H]1[C@H](CO)[C@@H](C(=O)NCC)[C@@H]2N1C(=O)c1ccc(F)cc1 (mixture of isomers),1,5,-3.7
O=C(C[C@@H]1C=C[C@H](NC(=O)C2CCOCC2)[C@H](CO)O1)Nc1ccc(-c2ccccc2)cc1,3,-6,8.4
CCCNC(=O)N1[C@H](CO)[C@@H](c2ccccc2)C12CN(CCC(F)(F)F)C2,-4,-1,-2.9
COc1ccc(NC(=O)N(C)C[C@H]2Oc3ccc(NS(=O)(=O)c4cccs4)cc3CC(=O)N([C@H](C)CO)C[C@@H]2C)cc1,-1,5,-5.3
CO[C@H](CN(C)Cc1ccc(-c2ccccn2)cc1)[C@H](C)CN(C(=O)Nc1ccc(F)cc1)[C@@H](C)CO,2,-1,2.3
CN(C)CC(=O)N1[C@H](C#N)[C@H](c2ccc(C#CC3CCCCC3)cc2)[C@@H]1CO,-2,0,-2.0

Additional compounds follow:
SMILES,DUX4 txn inh,DUX4 txn inh difference,DUX4 txn inh control
C[C@@H]1CN([C@H](C)CO)C(=O)Cc2cc(N(C)C)ccc2O[C@H]1CN(C)Cc1ccc(-c2ccccc2)cc1,0,-1,1.2
Cn1cnc(CCNC(=O)C[C@@H]2CC[C@H]3[C@@H](COC[C@H](O)CN3C(=O)Nc3ccccc3)O2)c1,-1,-3,2.2
CO[C@@H]1CN(C)C(=O)c2ccc(NC(=O)C3CCCC3)cc2OC[C@@H](C)N(CCC(F)(F)F)C[C@@H]1C,-9,0,-8.9
C/C=C/c1ccc2c(c1)O[C@@H](CN(C)C(=O)NCCC)[C@@H](C)CN([C@H](C)CO)S2(=O)=O,-2,-4,1.7
COc1ccc2c3c(n(C)c2c1)[C@@H](CO)N(Cc1nccs1)CC31CCN(C(C)=O)CC1,10,11,-1.1
C[C@@H]1CN([C@H](C)CO)S(=O)(=O)c2ccc(C3=CCCCC3)cc2O[C@H]1CN(C)C(=O)C1CCCCC1,3,4,-1.8
Cc1noc(C)c1NC(=O)N[C@@H]1CC[C@H](CC(=O)N2CCN(C)CC2)O[C@H]1CO,4,4,0.5
CCCC(=O)N1CC2(C1)CN(C(=O)C1CCCCC1)[C@H](CO)c1[nH]c3cc(OC)ccc3c12,5,3,1.9
COCC(=O)N1CC[C@H]2[C@H](CO)Nc3ccc(C#Cc4ccccc4)cc3[C@H]21,11,-1,12
CN1c2ccc(Br)cc2[C@@H]2[C@@H](CCN2S(=O)(=O)c2ccccc2F)[C@@H]1CO,7,10,-2.6
C/C=C/c1ccc([C@H]2[C@@H](CO)N(C(C)=O)C23CN(C(=O)NC2CCCC2)C3)cc1,14,12,1.3
C[C@@H]1CN([C@H](C)CO)C(=O)c2cc(C#Cc3ccccc3F)cnc2O[C@@H]1CN(C)C(=O)C1CCC1,0,0,0.3

New compounds follow
SMILES,DUX4 txn inh,DUX4 txn inh difference,DUX4 txn inh control
O=C(O)C[C@H]1C[C@H]2c3cc(NC(=O)Cc4ccncc4)ccc3O[C@H]2[C@@H](CO)O1,1,1,0.2
Cc1noc(C)c1NC(=O)N[C@@H]1C=C[C@H](CC(=O)N2CCCCC2)O[C@@H]1CO,6,2,3.5
O=C(C[C@H]1CC[C@@H]2[C@H](COC[C@H](O)CN2Cc2ccncc2)O1)NCc1ccncc1,5,5,-0.4
CO[C@H]1CN(C)C(=O)c2cc(NC(C)=O)ccc2OC[C@H](C)N(C(=O)C2CC2)C[C@H]1C,1,0,1.1
CN(C)CCCNC(=O)[C@H]1[C@H](CO)[C@H]2Cn3c(cccc3=O)[C@@H]1N2CC1CC1,2,4,-2.1
Cc1noc(C)c1S(=O)(=O)Nc1ccc2c(c1)C(=O)N([C@@H](C)CO)C[C@H](C)[C@@H](CN(C)Cc1ccc(C(=O)Nc3ccccc3N)cc1)O2,0,2,-2.0
C[C@H]1CCCCO[C@H](CN(C)C(=O)C2CCCCC2)[C@@H](C)CN([C@@H](C)CO)C(=O)c2cc(NS(=O)(=O)c3ccccc3)ccc2O1,1,-2,2.9
C[C@@H]1CN([C@H](C)CO)C(=O)CCCn2nncc2CO[C@@H]1CN(C)C(=O)C1CCCCC1,-1,3,-4.7
C[C@H](CO)N1C[C@H](C)[C@H](CN(C)Cc2ccc3c(c2)OCO3)Oc2ccc(NS(=O)(=O)c3cn(C)cn3)cc2CC1=O,-3,1,-3.8
O=C(CN1CCOCC1)N(CC1CCC1)C[C@H]1N[C@H](CO)[C@@H]1c1ccccc1,-1,0,-0.5
CCCNC(=O)C[C@H]1CC[C@H]2[C@@H](COC[C@H](O)CN2C(=O)c2cccnc2)O1,5,-1,5.8
CO[C@@H]1CC[C@H]2CCOc3ccc(C#N)cc3C(=O)N(C)C[C@H](C)C(=O)N(C)C[C@@H]1O2,9,20,-11

The last three records of the part above open the next one.
SMILES,DUX4 txn inh,DUX4 txn inh difference,DUX4 txn inh control
O=C(CN1CCOCC1)N(CC1CCC1)C[C@H]1N[C@H](CO)[C@@H]1c1ccccc1,-1,0,-0.5
CCCNC(=O)C[C@H]1CC[C@H]2[C@@H](COC[C@H](O)CN2C(=O)c2cccnc2)O1,5,-1,5.8
CO[C@@H]1CC[C@H]2CCOc3ccc(C#N)cc3C(=O)N(C)C[C@H](C)C(=O)N(C)C[C@@H]1O2,9,20,-11
Cc1ccc(-c2ccc([C@@H]3[C@H](CO)N4C(=O)CN(C(=O)c5ccncc5)C[C@@H]34)cc2)cc1,?,/,/
COc1ccc2c3c([nH]c2c1)[C@@H](CO)N(C(=O)c1cccc(F)c1)CC31CN(C(=O)c2ccccc2)C1,?,/,/
Cc1ccccc1S(=O)(=O)N(C)C[C@H]1OCc2cn(nn2)CCCC(=O)N([C@@H](C)CO)C[C@@H]1C,-2,-3,0.8
C[C@H]1CN([C@@H](C)CO)C(=O)c2cc(NC(=O)CCN3CCOCC3)ccc2O[C@@H]1CN(C)S(=O)(=O)c1cccs1,0,-2,2.3
C/C=C/c1ccc([C@H]2[C@@H](CO)N(CC3CC3)C23CN(S(C)(=O)=O)C3)cc1,7,5,1.8
CO[C@H]1CN(C)C(=O)c2cc(NC(=O)C3CC3)ccc2OC[C@@H](C)N(Cc2cc(F)ccc2F)C[C@@H]1C,6,6,0.0
CCCNC(=O)Nc1ccc2c(c1)C(=O)N(C)C[C@@H](OC)[C@H](C)CN(Cc1ccccn1)[C@@H](C)CO2,3,-2,5.6
C[C@@H]1CCCCO[C@H](CN(C)C(=O)c2ccncc2)[C@H](C)CN([C@@H](C)CO)C(=O)c2cc(NS(=O)(=O)c3cccs3)ccc2O1,6,5,0.8
O=C(C[C@H]1C[C@H]2c3cc(NC(=O)Nc4ccccc4F)ccc3O[C@H]2[C@@H](CO)O1)NCC1CC1,-1,-4,3.0
O=C(C[C@H]1CC[C@H]2[C@@H](COC[C@H](O)CN2Cc2cc(F)ccc2F)O1)N[C@@H]1CCN(Cc2ccccc2)C1,-3,1,-3.9
OC[C@@H]1Nc2ccc(-c3cccc(F)c3)cc2[C@@H]2[C@H]1CCN2Cc1ccc(F)cc1,?,/,/
C[C@H]1CN([C@@H](C)CO)C(=O)Cc2cc(NC(=O)Cn3cnnn3)ccc2O[C@H]1CN(C)S(=O)(=O)c1ccc(Cl)cc1,2,-1,3.0

(list continues)
SMILES,DUX4 txn inh,DUX4 txn inh difference,DUX4 txn inh control
CCCN1C[C@H](C)[C@H](OC)CN(C)C(=O)c2cc(NC(=O)CC)ccc2OC[C@@H]1C,-1,-3,1.9
C[C@@H]1CN([C@H](C)CO)S(=O)(=O)c2ccc(C#Cc3ccccc3)cc2O[C@@H]1CN(C)C,-3,-4,0.9
Cc1ccc(-c2cnc3c(c2)C(=O)N([C@@H](C)CO)C[C@H](C)[C@H](CN(C)Cc2ccccc2C(=O)O)O3)cc1,-3,-1,-2.6
CC(C)C(=O)Nc1ccc2c(c1)C(=O)N(C)[C@@H]1CC[C@H](CC(=O)NCC3CC3)O[C@H]1CO2,0,1,-1.1
C[C@@H]1CCCCO[C@@H](CN(C)Cc2ccc(C(=O)O)cc2)[C@H](C)CN([C@H](C)CO)C(=O)c2cc(NS(=O)(=O)c3ccc(F)cc3)ccc2O1,9,21,-12
CN(C)c1ccc2c(c1)[C@@H]1C[C@@H](CC(=O)NCc3ccncc3)O[C@H](CO)[C@@H]1O2,6,4,2.0
O=C(N[C@H]1C=C[C@@H](CC(=O)N2CCc3ccccc3C2)O[C@@H]1CO)C1CCC1,3,5,-2.2
CO[C@H]1CC[C@H]2CCN(C)C(=O)[C@H](C)[C@@H](OC)CN(C)C(=O)c3cccc(C#N)c3OC[C@H]1O2,6,1,4.4
CO[C@H]1CN(C)C(=O)c2cc(NC(=O)Nc3cc(F)ccc3F)ccc2OC[C@H](C)NC[C@@H]1C,-3,0,-3.7
COc1ccccc1NC(=O)N[C@@H]1CC[C@@H](CCNC(=O)c2ccc3c(c2)OCO3)O[C@@H]1CO,0,2,-1.5
C[C@@H](NC(=O)C[C@H]1CC[C@H]2[C@@H](COC[C@@H](O)CN2Cc2cc(F)ccc2F)O1)c1ccccc1,1,0,1.1
CO[C@@H]1CN(C)C(=O)c2cc(NS(=O)(=O)c3ccc(Cl)cc3)ccc2OC[C@@H](C)N(C(=O)NC(C)C)C[C@@H]1C,-2,-2,0.0

The list goes on:
SMILES,DUX4 txn inh,DUX4 txn inh difference,DUX4 txn inh control
CCC(=O)N1[C@H](CO)[C@@H]2c3ccccc3N(C(=O)Nc3ccccc3Cl)C[C@@H]21,2,3,-1.4
COc1ccc(NC(=O)Nc2ccc3c(c2)[C@@H]2C[C@H](CC(=O)NCc4ccccn4)O[C@@H](CO)[C@@H]2O3)cc1,2,1,1.2
CC(C)CC#Cc1ccc([C@@H]2[C@@H](CO)N3C(=O)CN(C(=O)Cc4cccnc4)C[C@@H]23)cc1,-5,-1,-3.5
CN(C)C(=O)c1cccc(-c2ccc([C@@H]3[C@H](CO)N4CCCCN(S(C)(=O)=O)C[C@@H]34)cc2)c1,11,11,-0.2
COc1ccc2c3c([nH]c2c1)[C@H](CO)N(C(=O)C1CCCCC1)CC31CN(S(C)(=O)=O)C1,12,20,-8.4
COC(=O)C[C@H]1CC[C@H]2[C@H](COc3ccc(NS(=O)(=O)c4ccccc4F)cc3C(=O)N2C)O1,-2,-3,1.0
O=C(C[C@H]1CC[C@@H]2[C@H](COC[C@H](O)CN2C(=O)Nc2ccc(C(F)(F)F)cc2)O1)NC1Cc2ccccc2C1,-6,3,-9.8
